gsp antag = antagonizes gsp, the McCune-Albright syndrome mutation. gsp-mutant cells, cAMP HTRF, 30 min; control for the full effect not named in the record. Potency, µM (doses to about 76.9 µM), for inactives: top-dose activity change, negative = inhibition, usual class: inhibitors. 0.4% of 340,000 active; active = falling curve of any shape with a large fitted effect; inconclusive = falling curve, mostly with a smaller effect; inactive = flat or rising curve; cell line not stated here;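 further: intracellular cAMP measured with PDE inhibitor Ro 20-1724 present during compound exposure; potency means the concentration at half of the fitted maximal effect; on the % scale 0 is the no-effect control and ±100 the full control effect; nearly all actives have a fitted effect of over 65% in size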
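G418-selected cells were plated in DMEM/10% FBS for 16-24 h at 37C, then treated with compounds plus the PDE inhibitor […] (300 uM solution added) for 30 min at 37C. Intracellular cAMP was measured by HTRF after 30 min lysis at room temperature.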
TRPML1 agonist = agonists of human TRPML1 channel; TRPML1-expressing cells, Ca2+ dye fluorescence, FDSS; host cell line not named in the record; reference of the full effect not given here; activation, % (concentration not given with the values); AID 624414; 0.12% of 410,000 active; Q9GZU1; in the data active = activation above about 50%; inconclusive = about 30% to 50%; inactive = below about 30%; further: 0% is about no effect; the text of the record puts the active cut at 80%
Target sequence (Q9GZU1 whole entry, looked up): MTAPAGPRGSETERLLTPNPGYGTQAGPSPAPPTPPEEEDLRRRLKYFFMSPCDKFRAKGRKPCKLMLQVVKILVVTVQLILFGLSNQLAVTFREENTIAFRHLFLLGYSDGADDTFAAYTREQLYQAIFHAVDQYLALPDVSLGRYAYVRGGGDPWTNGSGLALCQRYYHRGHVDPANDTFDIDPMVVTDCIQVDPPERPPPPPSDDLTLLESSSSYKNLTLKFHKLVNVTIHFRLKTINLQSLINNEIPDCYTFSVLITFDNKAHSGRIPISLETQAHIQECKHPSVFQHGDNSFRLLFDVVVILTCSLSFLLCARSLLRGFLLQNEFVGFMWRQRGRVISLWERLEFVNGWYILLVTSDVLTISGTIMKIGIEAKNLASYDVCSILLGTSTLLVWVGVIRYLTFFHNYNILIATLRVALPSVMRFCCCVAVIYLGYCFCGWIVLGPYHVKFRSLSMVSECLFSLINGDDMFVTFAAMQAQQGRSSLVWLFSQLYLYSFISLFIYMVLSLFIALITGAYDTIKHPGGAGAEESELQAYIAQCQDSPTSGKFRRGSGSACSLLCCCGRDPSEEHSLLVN
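TRPML1-DL cells, Tet-induced overnight (~16 h, 37 degrees C), loaded 45-90 min at room temperature with Ca8 no-wash calcium dye plus quencher. FDSS fluorescence: 10 s baseline, compound pin-transfer, 110 s agonist read, then EC80 54-4 (4uM final) and 110 s antagonist read.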
TRPML1 inh = human mucolipin-1 channel inhibition | TRPML1-inducible cells, Ca2+ dye fluorescence, FDSS; stronger effect = lower value; inhibition of EC80 agonist-evoked calcium signal | activity change, negative = inhibition, % (no concentration beside the values) | 0.02% of 390,000 active | Q9GZU1 | AID 624415; in the data active means activity change below about -50%; inconclusive means about -30% to -50%; inactive means above about -30%;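 further: stimulus is agonist 54-4 at its EC80 concentration; on the % scale 0 is the no-effect control and ±100 the full control effect; compound concentration not given in the record; the text of the record puts the active cut at -80%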
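Calcium fluorescence in TRPML1-DL cells induced overnight with Tet: a 110 s read after compound pin addition, then a 110 s antagonist read after challenge with 54-4 at 4 uM final (EC80).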
ClpP mod = qHTS Assay for Activators of ClpP. ATP-dependent Clp protease proteolytic subunit (Bacillus subtilis (strain 168)), P80244. purified B. subtilis ClpP, FRET peptide cleavage, 20 min. Potency, µM (series often up to 57.5 µM), without a hit: at the highest dose activity change, negative = active. 1.9% of 340,000 active. AID 651965, 2013; active = well fitted falling curve with a large enough effect; inconclusive = small, poorly fitted or top-dose-only effect; inactive = no such curve, though single readings can be large or run the other way; further: potency means the concentration at half of the fitted maximal effect; the source files actives as falling curves though it sought activators and does not explain the sign; nearly all actives have a fitted effect of over 65% in size; many hits overshoot -100%
Target sequence (P80244 whole entry, looked up): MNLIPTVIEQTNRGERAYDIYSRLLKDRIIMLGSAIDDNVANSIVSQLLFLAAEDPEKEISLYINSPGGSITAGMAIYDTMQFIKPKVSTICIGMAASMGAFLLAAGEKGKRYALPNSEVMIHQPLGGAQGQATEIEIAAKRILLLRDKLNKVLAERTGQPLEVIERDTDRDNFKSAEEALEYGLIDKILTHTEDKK
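FRET quenching reversal measured ClpP activation: 10 microg/mL B. subtilis ClpP at pH 8 with the FRET-FV decapeptide, read at 430 nm after 320 nm excitation. The 20-min minus 0-min signal was scaled between DMSO/no-enzyme wells and ADEP (5.8 microM final).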
gsp ag = activates gsp, the McCune-Albright syndrome mutation; gsp mutant cells, cAMP HTRF, 30 min; control for the full effect not named in the record; Potency, µM (highest dose often 76.9 µM), for the others: at the top dose activation (cAMP increase), hits mostly activators; 0.13% of 340,000 active; AID 624287; active = well fitted activation curve with a large enough effect; inconclusive = small, poorly fitted or top-dose-only effect, or another doubt; inactive = no such curve, though single readings can be large or run the other way; cell line not stated here;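 further: phosphodiesterase inhibitor Ro 20-1724 added with compounds to block cAMP breakdown; potency means the concentration at half of the fitted maximal effect; nearly all actives have a fitted effect of over 60% in size; about a fifth of the inactives were tested at one dose only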
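Cells in DMEM/10% FBS with G418 were pretreated with compounds in DMSO plus […] (300 uM stock) for 30 min at 37C. cAMP was measured by HTRF (cAMP-d2 plus anti-cAMP antibody-K) after 30 min at room temperature.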
Menin-MLL FL inh = displaces fluorescein MLL peptide from human menin | 290,000 tested, under 10 active | AID 1766 | Fluorescence polarization, fluorescein-MLL peptide displacement from menin | FP activity change, % at 61.4 µM; inconclusive = falling polarisation curve, or a change in total fluorescence; inactive = total fluorescence flat and polarisation flat or rising; no compound was filed as active; the % refers to the polarisation; negative = inhibition;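 further: % of control where 0% means no effect; inhibitors lower the polarisation; unlabelled MLL peptide was the positive control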
An asterisk follows results filed as active; ? = inconclusive; / = not tested or not shown; & = joins results of further samples; [ ] = another dose, or the depositor's remark.

SMILES | gsp antag | TRPML1 agonist | TRPML1 inh | ClpP mod | gsp ag | Menin-MLL FL inh
CC(=O)N(Cc1c(C)nn(-c2ccccc2)c1Cl)c1ccc(Cl)cc1 | -30% | 1.7 | 1 | 1.8% | -28% | 0.5
CCOc1ccc2c(=O)c(Oc3ccccc3)c(C)oc2c1 | ? | 2.9 | 39 | -4.5% | -17% | 0.9
Cc1cc(=O)[nH]c(SCc2nc3ncccn3c2Br)n1 | 6% | 0.8 | -9 | 28µM* | ? | 6.7
CCCNc1ccc(-c2nc(-c3ccco3)no2)cc1[N+](=O)[O-] | / | -0.8 | -21 | 1.1% | / | /
COc1ccccc1C(=O)NCCN1CCN(c2ccccc2)CC1 | -8% | -1.2 | -6 | -3.5% | 16% | -7.7
CC1CCCN(S(=O)(=O)c2ccc(N(C(=O)c3cnccn3)C(C(=O)NC3CCCCC3)c3cccs3)cc2)C1 (configuration not stated) | -21% | 0.0 | 10 | 1.1% | -4% | 0.9
COc1ccccc1C(C)NC(=O)c1cc(S(=O)(=O)N2CCCCC2)ccc1C (configuration not stated) | -7% | 0.4 | -1 | 1.3% | 11% | /
COc1cc(OC)c2c(-c3ccccc3)cc(=O)oc2c1C(CCN1CCOCC1)c1ccc2c(c1)OCO2 (configuration not stated) | 10% | 0.8 | 40 | ? | / | 3.7
CCOc1ccc(NC(=O)NCCCCc2ccccc2)cc1 | -1% | -0.4 | -3 | 0.2% | -25% | -3.6
COc1ccccc1NC(=O)c1cc(S(=O)(=O)NC2CCCC2)ccc1F | -15% | -0.1 | 6 | -1.8% | -47%[inhibitor] | /
COCCCNC(=O)c1ccc(-n2nc(C(F)(F)F)cc2-c2cccs2)cc1 | -18% | 1.5 | -11 | -2.5% | -1% | 10
COCCN(C(=O)C1CC1)c1nnc(-c2cccc(C)c2)s1 | 9% | -0.8 | 0 | -6.2% | 0% | 2.4
CCOC(=O)Cc1csc(SCC(=O)Nc2cccc(C#N)c2)n1 | -6% | -0.3 | 24 | 0.5% | -5% | 4.3
CC(C)OCCCNc1ncnc2c1nc1n2CCCC1 | 15% | -1.6 | -3 | 0.9% | -8%[15.4 µM] | -5.8
O=C(CCS(=O)(=O)c1cccc2nonc12)N1CCCc2ccccc21 | 4% | -0.9 | -6 | -0.5% | 4% | -0.9
Cn1c(Cc2ccccc2)nnc1SCC(=O)Nc1ccccc1N1CCOCC1 | 3% | -0.8 | -5 | 1.1% | -17% | 3.6
C=CC[C@H](CC(=O)N(CCO)Cc1ccccc1)C(=O)N[C@@H](COC(=O)[C@@H](CC=C)CC(=O)OC(C)(C)C)Cc1c[nH]c2ccccc12 | -25% | 0.0 | -3 | 0.7% | -38%[inhibitor] | /
C[C@@H]1CN([C@H](C)CO)C(=O)CCCn2nncc2CO[C@H]1CN(C)S(=O)(=O)c1cccs1 | / | -0.4 | 2 | -0.5% | -16% | /
O=C(CCc1ccccc1Cl)Nc1cccc(S(=O)(=O)N2CCCC2)c1 | -3% | 0.7 | -6 | -0.4% | -1% | /
COc1ccccc1-c1nnc(NC(=O)C(C)SC2=NCCS2)s1 (configuration not stated) | -9% | 0.9 | -4 | -19% | -59%[inhibitor] | 0.8
O=C(NCCS(=O)(=O)N1CCN(c2ccccc2F)CC1)c1ccc(F)c(F)c1 | 4% | -0.6 | -1 | 1.1% | 10%[15.4 µM] | /
Cc1nn(-c2ccccc2)c(Cl)c1C(=O)N1CCN(C)CC1 | 10% | 1.4 | 26 | -1.2% | -39%[inhibitor] | 0.1
COc1cc(/C=N/NS(=O)(=O)c2ccc(Br)cc2)ccc1O | 1% | 0.4 | -16 | -3.3% | 8% | -3.8
CN1CCN(c2nc3c(c(=O)n(C)c(=O)n3C)n2Cc2ccccc2Cl)CC1 | -15% | 0.2 | 17 | -1.0% | -11% | -3.4
CCOC(=O)c1c(CN2CCCCC2)oc2ccc(OC)cc12 | -13%&-10% | -0.7&-1.5 | 4&13 | -12%&-9.4% | -43%&-4%[inhibitor] | 3.5&1.4
COCCn1c(SC(C(=O)Nc2cc(C)ccc2OC)c2ccccc2)nnc1-c1ccc(Cl)cc1 (configuration not stated) | 7% | 0.5 | -4 | -1.0% | -3% | 2.3
NS(=O)(=O)c1ccc(C(=O)O)cc1 | 2% | 0.4 | -2 | -3.0% | / | 4.5&-0.1
Cc1cccc(NC(=O)COc2ccc(Br)cc2C)n1 | 4% | 3.6 | -12 | -0.6% | 0% | 5.1
Cc1ccc(NS(=O)(=O)c2ccc(C)c(C(=O)N3CCOCC3)c2)cc1 | -12% | 0.2 | -18 | 1.6% | -8%[15.4 µM] | /
C=CCn1c(-c2cccnc2Cl)nc2ccccc21 | 7% | 0.8 | -27 | / | -2%[15.4 µM] | 1.8
O=S(=O)(NCc1ccccc1)c1cccc(S(=O)(=O)N2CCOCC2)c1 | 0% | 1.1 | 7 | -2.9% | -64% | -1.9
CNc1nc(NC)nc(-n2c(C(F)(F)F)nc3ccccc32)n1 | -6% | -0.7 | 12 | -0.5% | -83%[inhibitor] | -1.4
COc1ccc(N2CCN(C3CCCN(Cc4ccccc4OCCO)C3)CC2)cc1 (configuration not stated) | -28% | 0.4 | -2 | -1.7% | -28% | -6.3
COc1ccc(-c2c(-c3cc(OC)cc(OC)c3)n(C)c3ccc(-c4ccc(S(N)(=O)=O)cc4)cc23)cc1 | -9% | -0.6 | 5 | 4.0% | -14% | /
CC(C)c1ccc(Nc2nnc(SCC(=O)NCC3CCCO3)s2)cc1 (configuration not stated) | -9% | 0.1 | 5 | 0.7% | 2% | /
O=C1CSC(=S)N1Cc1cccnc1 | -1% | 1.7 | 26 | -2.3% | 22% | ?
CCCOc1ccc(NC(=O)C2CC(=O)N(C)C(=Nc3cccc(OC)c3)S2)cc1 (configuration not stated) | -9% | 1.6 | 5 | / | -27%[15.4 µM] | -6.5
COc1ccccc1C(=O)Nc1ccc(S(=O)(=O)N2CCCC2)cc1 | -14% | 0.4 | 14 | 0.9% | 14% | 1.0
CCCC(=O)c1ccc(N2CCN(C(=O)c3cccs3)CC2)c(F)c1 | -21% | -0.5 | 4 | -0.3% | ? | -4.2
N[C@@H](CO)c1cn([C@@H](Cc2cc3ccccc3[nH]2)C(=O)N2CCNCC2)nn1 | 7% | -0.1 | -8 | -5.4% | / | -1.2
CCOC(=O)C1CCN(S(=O)(=O)c2cc(Br)cc3c2N(C(=O)CC)CC3)CC1 | / | -0.4 | -15 | -1.2% | / | /
CC1CN(C(=O)C2CCCN2S(=O)(=O)c2ccc(Cl)cc2)CC(C)O1 (configuration not stated) | 11% | 1.8 | -25 | -1.4% | 1% | 2.6
CCCCS(=O)(=O)NC1=NCN(CCOC(=O)c2ccccc2)CN1 | 5% | -0.2 | -10 | -1.2% | -1% | /
O=C(Nc1ccccc1)C1CCN(S(=O)(=O)c2ccc3c(c2)OCCO3)CC1 | 4% | 2.4 | 9 | / | -8%[15.4 µM] | /
COc1ccccc1C(c1nnnn1Cc1ccco1)N1CCN(c2cccc(C)c2C)CC1 (configuration not stated) | -3% | 0.7 | -9 | -1.2% | 10% | 1.0
O=C(CN1CCC(n2nnc3cc(C(F)(F)F)ccc32)CC1)NNC(=O)c1ccco1 | 64%[activator] | 1.1 | -7 | -0.4% | -2% | -3.7
CCOc1ccc(NC(=O)CN2CCN(CC(=O)Nc3ccc(C(=O)OC)cc3)CC2)cc1 | -10% | -0.7 | 21 | 0.7% | 0% | 3.2
C=C1c2cccc(C(F)(F)F)c2O[C@H](C(=O)OCC)[C@H]1OC | -1% | -0.7 | -8 | 2.5% | / | /
O=c1oc(Nc2ccc(F)cc2)nc2ccccc12 | 8% | -0.1 | 6 | ? | 22% | 3.5
Cc1c(-c2ccccc2Br)nc2ccccc2c1C(=O)O | -4% | 0.4 | 5 | -2.0% | 5% | /

A second format for some results above:
CCOC(=O)C1CCN(S(=O)(=O)c2cc(Br)cc3c2N(C(=O)CC)CC3)CC1
  gsp antag: / | TRPML1 agonist: -0.4 | TRPML1 inh: -15 | ClpP mod: -1.2% | gsp ag: / | Menin-MLL FL inh: /
CC1CN(C(=O)C2CCCN2S(=O)(=O)c2ccc(Cl)cc2)CC(C)O1 (configuration not stated)
  gsp antag: 11% | TRPML1 agonist: 1.8 | TRPML1 inh: -25 | ClpP mod: -1.4% | gsp ag: 1% | Menin-MLL FL inh: 2.6
O=C(CN1CCC(n2nnc3cc(C(F)(F)F)ccc32)CC1)NNC(=O)c1ccco1
  gsp antag: 64%[activator] | TRPML1 agonist: 1.1 | TRPML1 inh: -7 | ClpP mod: -0.4% | gsp ag: -2% | Menin-MLL FL inh: -3.7
Cc1c(-c2ccccc2Br)nc2ccccc2c1C(=O)O
  gsp antag: -4% | TRPML1 agonist: 0.4 | TRPML1 inh: 5 | ClpP mod: -2.0% | gsp ag: 5% | Menin-MLL FL inh: /

Remaining list, next part.
SMILES | gsp antag | TRPML1 agonist | TRPML1 inh | ClpP mod | gsp ag | Menin-MLL FL inh
CC(C)N1CC2(CC(c3ccccc3F)=NO2)CN1C(=O)c1ccco1 (configuration not stated) | / | -0.9 | -11 | -1.4% | -25% | /
Cc1ccc(NC(=O)CCn2nc(C)c3c(C)n(-c4ccccc4)nc3c2=O)cc1Cl | / | -0.7 | -8 | -1.2% | / | /
O=S1(=O)C[C@@H](N2CCOCC2)[C@H](N2CCOCC2)C1 | 7% | 0.1 | 13 | 0.5% | -11% | 2.9
O=C(NCc1ccc(Cl)cc1)c1ccc(CNc2c(N3CCOCC3)c(=O)c2=O)cc1 | 2% | 0.7 | 21 | 0.6% | -34% | 5.0
COc1ccccc1OCC(=O)Nc1nc(C)c(C)s1 | 1% | -0.4 | -7 | / | 11%[15.4 µM] | 0.8
Cc1nc2sc3c(c2c(=O)o1)CCCC3 | -6% | -0.5 | 0 | -3.7% | ? | -0.3
CN(C/C(O)=C(\C#N)c1ccccc1)C1CCCCC1 | -7% | -0.6 | 15 | 0.9% | -7% | 5.0
CC1(C)N=C(N)N=C(N)N1c1ccc(OCC(=O)N2CCOCC2)cc1 | / | 0.6 | -2 | -2.7% | 11% | /
Cc1ccc(CNC(=O)C2COc3ccccc3C2)cc1 (configuration not stated) | / | 0.4 | 6 | -0.7% | / | /
O=C(O)C(C=C(Cl)Cl)N1CCOCC1 (configuration not stated) | 5% | -0.3 | -18 | / | 19% | /
CCOC(=O)c1c(NC(=O)CN2C(=O)NC3(CCCCCC3)C2=O)sc(C)c1-c1ccc(C)cc1 | -8% | 1.0 | 11 | -9.3% | -30% | /
O=C(NCCc1ccccc1)C1CCN(C(=O)NCc2ccccc2)CC1 | 13% | 1.0 | -1 | -1.7% | 21% | 1.1
Cc1cc([N+](=O)[O-])nn1Cc1noc(C(=O)NCc2ccc3c(c2)OCO3)n1 | -3% | -0.7 | 6 | / | 1% | -0.7

Screening data as filed in PubChem BioAssay.
